Screens deposited in PubChem by several laboratories.
BJeLR viability: MLPCN primary cell-based screen for lethality selective to Ras in HRASV12 cells. BJeLR (HRASV12) viability, CellTiter-Glo ATP luminescence, 48 h; reference of the scale not given here. inhibition, % (test concentration not listed). 300,000 tested, 0.17% active. AID 1554, 2009;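 active means replicate mean above 50%; inconclusive means above 50% but judged a plate artefact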;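 further: 50 nL library stock added to about 25 µL; numbers are from one replicate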
PrP 5UTR inh: inhibition of PrP 5' UTR reporter expression; cell-based PrP 5' UTR mRNA reporter, plate reader; inhibition, % (concentration not given with the values); 340,000 tested, 0.35% active; AID 488862, 2010;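 active means every replicate at 50% or more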;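 further: 0 = median of the neutral control wells; tested in H4 reporter cells; numbers are from one replicate; inactives centre near -14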
ugtP null kill: growth inhibition of ugtP-null S. aureus, primary screen, RN4220 ugtP deletion, OD600; 16 h; some inactives read as strong as hits; growth inhibition, % (no concentration beside the values); 330,000 tested, 0.54% active; AID 1259309, 2017;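 active means z-score under -3 and OD600 up to 0.15 on both plates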;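 further: plate controls were untreated wells for no effect and antibiotic for full effect; wells of about 80 µL received 100 nL stock; the first replicate is given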
Sa RN4220 lethal: growth inhibition of S. aureus RN4220, primary screen, OD600 | 330,000 tested, 0.33% active | inhibition, % (no concentration beside the values) | 16 h;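 active means z-score of -3 or lower and OD600 up to 0.18 on both plates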;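 further: plate controls were untreated cells for no effect and reference antibiotic for full effect; stock transfer was 100 nL into about 80 µL; one replicate is shown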
Mtb hypoxia inh: PubChem AID 1159583; fluorescence inhibition, % (no concentration beside the values); 300,000 tested, 0.1% active; M. tuberculosis hypoxia-regulated fluorescent reporter, fluorescence;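 active means 35 to 45% if threefold the growth effect, above 45% if 1.5-fold the growth effect; inactive means the rest, general growth blockers included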;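 further: wells of about 50 µL received 100 nL stock; 0% = vehicle wells and 100% = reference inhibitor wells; whole bacteria with a GFP reporter of the hypoxia response; strong numbers were not always called active; many hits fall short of the cut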
Bead autofluor: compound fluorescence in toxin protease inhibitor counterscreen. AID 624483. fluorescence intensity (no concentration beside the values). compound autofluorescence counterscreen, microsphere flow cytometry; stronger effect = higher value. 360,000 tested, 3.1% active;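 active means at least 3 SD above the mean of all compounds, about 16000 in these data; inconclusive means too few beads counted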;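 further: 100 nL of 1 mM stock went into each well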
Mtb hypoxia inh growth: second read-out of Mtb hypoxia inh, no call of its own (marks repeat the call); growth inhibition, %; measured here: M. tuberculosis growth (absorbance);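 0% = vehicle and 100% = reference antibiotic; read after six days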
* hit, by the source's call; ? = inconclusive; nt = no result given.

Fields: BJeLR viability	PrP 5UTR inh	ugtP null kill	Sa RN4220 lethal	Mtb hypoxia inh	Mtb hypoxia inh growth	Bead autofluor
- Oc1ccc(-c2nc3ccccc3nc2-c2ccc(O)cc2O)c(O)c1
→ nt	-21	-3	1.2	17	11	3822
- COc1ccccc1N1C(=O)S/C(=C\c2cc(C)n(C)c2C)C1=O
→ -2	-15	8	0.5	9	6	2380
- CCC1CCCCN1CCCNC(=O)c1ccc2c(c1)N(Cc1c(F)cccc1Cl)C(=O)CS2 (stereo not given)
→ 12	-16	9	-3.4	10	12	6590
- O=C(NC(=S)NCc1ccc(Cl)cc1Cl)c1ccco1
→ nt	-19	-5	1.5	5	9	3715
- O=C(CN(C1CC1)S(=O)(=O)c1ccc(S(=O)(=O)NC2CCCCC2)cc1)Nc1ccccc1
→ nt	-10	-10	0.0	nt	nt	3853
- Cc1cc(Cl)ccc1OC(C)C(=O)Nc1ccc([N+](=O)[O-])cn1 (stereo not given)
→ -4	-15	nt	nt	nt	nt	2204
- CN(NC(=O)NN)c1ncc(C(F)(F)F)cc1Cl
→ -3	-9	4	1.3	14	-1	4440
- Cc1ccc(CNc2ncnc(N)c2[N+](=O)[O-])cc1
→ 7	-25	6	11	14	5	4200
- COc1ccc(NC(=O)CCN2CCCCC2)cc1
→ 3	-11	2	1.8	7	-1	10644
- Cc1ccc(C(C(=O)NCc2ccccc2)N(C(=O)c2ccccn2)c2ccccc2)o1 (stereo not given)
→ -8	-24	-6	-1.6	-9	-10	2945
- CCOc1ccccc1NC(=O)Cn1ncc2ccc([N+](=O)[O-])cc21
→ 0	-17	0	4.1	13	9	4020
- COC(=O)c1c(S(=O)(=O)NCc2ccccc2)sc(C(=O)O)c1C
→ 3	-15	0	2.0	nt	nt	3351
- CCn1cc(C(=O)NCC(OC)OC)c(=O)c2cc(S(=O)(=O)N3CCOCC3)ccc21
→ -3	-11	7	2.1	0	-6	5487
- O=[N+]([O-])c1cc(C=NO)ccc1N1CCCC1
→ nt	nt	11	4.4	1	5	nt
- COc1ccc(OC)c(N(CC(=O)NCc2cccnc2)S(C)(=O)=O)c1
→ -2	-13	6	-0.8	nt	nt	3871
- CCOC(=O)c1cc(-c2ccc(OC)cc2F)nc2c1c(C)nn2CCC#N
→ -4	-10	19	6.2	-1	9	25362*
- COc1ccc(C(CNC(=O)c2sccc2C)N2CCOCC2)cc1 (stereo not given)
→ 4	-35	10	1.1	0	0	6647
- CNC(=O)COC(=O)c1nc(-n2nc(C)cc2C)ccc1Cl
→ -1	-5	-3	2.3	3	1	24164*
- CC(=O)N1CC2(c3ccccc3)CN(C(C)=O)CC(c3ccccc3)(C1)C2=O
→ 25	21	3	5.3	5	4	nt
- C(=NNc1nc(-c2ccccc2)cs1)c1cccnc1
→ nt	nt	-7	-5.6	9	6	nt

(listing goes on)
Fields: BJeLR viability	PrP 5UTR inh	ugtP null kill	Sa RN4220 lethal	Mtb hypoxia inh	Mtb hypoxia inh growth	Bead autofluor
- CCOC(=O)c1nn(-c2ccc(C)cc2)c(=O)c2c(N)scc12
→ 6	-13	0	-6.1	9	12	3226
- CCOC(=O)CCSCC(=O)Nc1cc(C)on1
→ 6	-15	5	7.4	7	6	?
- O=c1c2ccccc2nc(SCc2ccccc2F)n1C1CCCC1
→ 6	-6	43	0.4	-6	5	1995
- O=C(CCc1[nH]c2ccccc2c1Sc1ccccc1)NCCO
→ 7	-12	-1	8.0	9	5	2689
- COc1ccc(C2N=C(N)N=C(N)N2c2ccc(C)cc2)cc1 (stereo not given)
→ 13	-15	-2	2.4	7	8	7600
- CC(=NNC(=O)C1CC1)c1ccc2c(c1)OCCO2
→ nt	nt	0	6.0	12	9	nt
- O=C(CN1C(=O)NC2(CCCC2)C1=O)Nc1cc(C(F)(F)F)ccc1N1CCOCC1
→ nt	-1	4	2.6	3	1	2809
- Cc1ccc(CN2CCC(N3CCC(C(=O)NCC4CCCO4)CC3)CC2)o1 (stereo not given)
→ -2	-11	8	1.3	9	4	3308
- O=C(O)CC(NS(=O)(=O)c1ccc(Br)cc1)c1ccco1 (stereo not given)
→ -8	-8	7	6.5	1	3	12513
- CCCCn1c(N)c(N(CC)C(=O)C2=NN(c3ccccc3)C(=O)CC2)c(=O)[nH]c1=O
→ nt	-8	6	3.0	2	0	3702
- CC(C)=NNC(=O)CN1C(=O)NC2NC(=O)NC21 (stereo not given)
→ 4	-9	nt	nt	nt	nt	10817
- Cc1c(CC(=O)O)c(=O)oc2c(C)c(OCc3ccccc3)ccc12
→ -4	-22	-3	0.8	5	6	3501
- Cc1cc(C(F)(F)F)n2nc(C)c(-c3ccc(Cl)cc3)c2n1
→ -20	-11	8	5.9	7	-5	2056
- Cc1ccc(C(=O)NC(=S)Nc2ccc(CN3CCCCC3)cc2)c(C)c1
→ 6	-9	69	-1.0	7	1	4380
- O=C(O)c1cccc(N/N=C/c2ccc(F)c(F)c2)c1
→ 15	-39	nt	nt	nt	nt	3921
- O=C(OCc1nnc(-c2ccc([N+](=O)[O-])cc2)o1)C1CC(=O)N(CCc2ccccc2)C1 (stereo not given)
→ nt	-19	-7	0.2	2	1	2995
- CCOC(=O)c1c(N2C(=O)C=CC2=O)sc(C)c1C
→ -4	-15	9	5.5	13	1	10201
- O=C(Nc1nnc(-c2ccc(Cl)cc2)o1)c1nc2ccccc2s1
→ 6	-1	99*	100*	6	8	5975
- Cc1c(CC(=O)N[C@H](C(=O)O)C(C)C)c(=O)oc2cc3c(cc12)CCC(C)(C)O3
→ 3	-24	17	4.8	-6	6	3583
- O=C(Nc1ccccc1)c1ccc(-c2ccc([N+](=O)[O-])cc2)o1
→ 2	-16	-1	0.6	-1	-6	3246

Taken from above:
Under Sa RN4220 lethal, `CCCCn1c(N)c(N(CC)C(=O)C2=NN(c3ccccc3)C(=O)CC2)c(=O)[nH]c1=O` is listed with 3.0
Under BJeLR viability, `CCOC(=O)c1c(N2C(=O)C=CC2=O)sc(C)c1C` is listed with -4
Under Mtb hypoxia inh, `CC(=NNC(=O)C1CC1)c1ccc2c(c1)OCCO2` is listed with 12
Under ugtP null kill, `COc1ccc(C2N=C(N)N=C(N)N2c2ccc(C)cc2)cc1` (stereo not given) is listed with -2
Under PrP 5UTR inh, `CCOC(=O)c1nn(-c2ccc(C)cc2)c(=O)c2c(N)scc12` is listed with -13

(further entries)
Fields: BJeLR viability	PrP 5UTR inh	ugtP null kill	Sa RN4220 lethal	Mtb hypoxia inh	Mtb hypoxia inh growth	Bead autofluor
- CCN(CC(=O)NCc1cccs1)C(=O)c1cc(=O)[nH]c2ccccc12
→ nt	-11	11	5.3	2	7	5340
- Cc1cc(=O)oc2cc(OCC(=O)N/N=C/c3ccccc3[N+](=O)[O-])ccc12
→ -11	-49	nt	nt	nt	nt	7037
- C[C@]12CCC3c4ccc(O)cc4CCC3C1CCC2=NN (stereo not given in full)
→ nt	nt	15	-1.9	13	-5	nt
- Cc1cc(OCc2cc(C(=O)NC3CCC3)no2)cc(C)c1Cl
→ 7	-12	5	4.1	0	-2	4297
- CCC(Sc1nc2ccccc2s1)C(=O)Nc1nnc(C)s1 (stereo not given)
→ -1	-38	-3	0.4	4	-3	22870*
- O=C(c1cc2nc(-c3ccco3)cc(C(F)(F)F)n2n1)N1CCc2ccccc2C1
→ 6	6	2	9.4	nt	nt	2042
- O=C1Nc2ccccc2C1Cc1ccccn1 (stereo not given)
→ 6	-20	15	6.3	-8	-4	5114
- Cc1ccc(OCC(=O)N2CCc3ccccc3C2)c(C)c1
→ 2	-7	4	6.4	12	0	3492
- O=S(=O)(NCc1ccccc1)c1ccc(Cl)c(S(=O)(=O)NCc2ccccc2)c1
→ 0	-28	-4	16	6	10	9322
- CC(=NNC(=O)c1cccs1)c1ccc(N2CCOCC2)cc1
→ nt	nt	-10	-0.5	6	1	nt
- COc1cccc(Oc2ncnc(N)c2[N+](=O)[O-])c1
→ 3	-12	-5	2.5	5	10	4886
- COC(=O)/C=c1/sc2nc3ccccc3n2c1=O
→ 0	-18	nt	nt	nt	nt	7916
- CCOc1ccc(CN2C(=O)c3ccccc3C2=O)cc1C(=O)N1CCC(C(N)=O)CC1
→ 3	-10	-8	-3.1	12	-30	nt
- CCCCCCOc1ccc(C(CC(N)=O)C(=O)O)cc1 (stereo not given)
→ -1	-31	4	7.2	10	-1	4624
- COc1ccc(/C=N/NC(=O)c2cccc(Br)c2)cc1Cn1cc(Cl)cn1
→ 8	-11	nt	nt	nt	nt	2835
- NC(=O)NN=Cc1ccc(OCc2cccc(Cl)c2)cc1
→ nt	nt	0	-8.9	8	-12	nt
- CCOC(=O)c1cc2occc2n1CC(=O)N1CCN(C(=O)c2ccco2)CC1
→ -1	-10	-6	2.9	-6	8	10896
- CCC1OC23CCCCC2C(C#N)(C(=N)O3)C1(C#N)C#N (stereo not given)
→ -4	-9	-7	8.9	5	10	2420
- O=C(CCc1ccccc1)N1CCN(c2ccc(F)cc2)CC1
→ 14	-16	4	6.8	nt	nt	4420
- Cn1c(SCC(=O)N2CCOCC2)nnc1-c1ccc(Cl)cc1Cl
→ -7	-33	2	-2.6	4	-4	23071*

Going on with the list.
Fields: BJeLR viability	PrP 5UTR inh	ugtP null kill	Sa RN4220 lethal	Mtb hypoxia inh	Mtb hypoxia inh growth	Bead autofluor
- O=C(NC(=S)Nc1ccc(Cl)c(C(=O)O)c1)c1cccc(COc2ccccc2)c1
→ -1	-18	13	22	3	0	?
- CCC(CC)C(=O)c1c[nH]c(C(=O)NCc2cccnc2)c1
→ 14	-12	2	4.5	10	6	3341
- O=C(c1cccc([N+](=O)[O-])c1)N1CCN(c2ccccn2)CC1
→ 8	-12	9	5.2	12	14	3280
- Cc1ccc(C(O)(C(=O)NNC(=O)CN2CCN(C)CC2)c2ccc(C)cc2)cc1
→ 3	5	-8	-0.9	-6	0	1946
- O=C(COc1ccc2ccccc2c1)NNC(=O)c1cnccn1
→ -3	-14	-2	-0.7	3	3	2908
- COc1ccccc1CC(NC(C)=O)C(=O)NC1CCN(C(=O)c2ccc([N+](=O)[O-])cc2)CC1 (stereo not given)
→ 4	-28	6	2.7	5	5	2512
- CC1Cc2cc(/C(O)=C3/C(=O)C(=O)N(CCN4CCOCC4)C3c3ccc([N+](=O)[O-])cc3)ccc2O1 (stereo not given)
→ -1	-12	4	2.6	4	8	5744
- CCOC(=O)C1C2COc3cc(OC)ccc3C2N2C(=O)c3cc(OC)c(OC)cc3NC(=O)[C@@]12C (stereo not given in full)
→ nt	nt	-11	-0.6	4	12	nt
- O=C(O)Cc1ccc(N=Nc2c(O)c(C(=O)O)cc3ccccc23)cc1
→ 0	-15	0	8.1	24	-1	2828
- Cc1cccc(S(=O)(=O)Nc2ccc(-c3cn4ccccc4n3)cc2)c1
→ 5	-42	4	4.0	-5	0	2597
- N#Cc1c(-c2cccs2)nc(SCc2ccc(Cl)cc2)[nH]c1=O
→ -7	-24	59	51	-3	-4	4377
- Cc1cc(C)c(C)c(OCCn2ccnc2)c1
→ 7	-22	-2	2.6	5	-4	3106
- CC(=O)c1cccc(NC(=O)C(C)OC(=O)Cc2c[nH]c3ccccc23)c1 (stereo not given)
→ -16	-14	2	-2.5	-1	-3	nt
- Cc1cc(C(=O)NN=Cc2cccs2)n[nH]1
→ nt	nt	0	0.5	-3	9	nt
- CN(Cc1ccccc1)C(=O)c1nn2cccnc2c1Cl
→ 4	-2	6	5.6	14	4	4917
- Cc1ccc(OCc2nc(-c3ccccc3)no2)c(C)c1
→ 3	-125	28	-9.2	8	4	nt

Part of the list above in order of length of the SMILES, highest first.
Fields: BJeLR viability	PrP 5UTR inh	ugtP null kill	Sa RN4220 lethal	Mtb hypoxia inh	Mtb hypoxia inh growth	Bead autofluor
- CCOC(=O)C1C2COc3cc(OC)ccc3C2N2C(=O)c3cc(OC)c(OC)cc3NC(=O)[C@@]12C (stereo not given in full)
→ nt	nt	-11	-0.6	4	12	nt
- O=C(c1cccc([N+](=O)[O-])c1)N1CCN(c2ccccn2)CC1
→ 8	-12	9	5.2	12	14	3280
- CCOC(=O)CCSCC(=O)Nc1cc(C)on1
→ 6	-15	5	7.4	7	6	?

Two of the compounds above, with tabs:
canonical_smiles	BJeLR viability	PrP 5UTR inh	ugtP null kill	Sa RN4220 lethal	Mtb hypoxia inh	Mtb hypoxia inh growth	Bead autofluor
Cc1ccc(C(O)(C(=O)NNC(=O)CN2CCN(C)CC2)c2ccc(C)cc2)cc1	3	5	-8	-0.9	-6	0	1946
COc1ccccc1CC(NC(C)=O)C(=O)NC1CCN(C(=O)c2ccc([N+](=O)[O-])cc2)CC1 (stereo not given)	4	-28	6	2.7	5	5	2512

The order is random. Share with any hit: about 4%.
